StopGo FLuc: FMDV 2A StopGo reporter, firefly signal; Potency, µM (doses to about 57.5 µM), for inactives: at the highest dose signal change, negative = less light; HEK cells with a luciferase reporter of 2A StopGo recoding; AID 1745856; 120,000 compounds, 0.23% hits; active = well fitted falling curve with a large enough effect; inconclusive = small, poorly fitted or top-dose-only effect; inactive = no such curve, though single readings can be large or run the other way; also: nearly all actives have a fitted effect of over 60% in size; overnight with compound
2A Renilla: FMDV 2A StopGo reporter, Renilla signal; HEK cells with a luciferase reporter of 2A StopGo recoding; Potency, µM (titrated, usually from 57.5 µM), for inactives: at the highest dose signal change, negative = less light; 120,000 compounds, 0.32% hits; AID 1745857; active means well fitted falling curve with a large enough effect; inconclusive means small, poorly fitted or top-dose-only effect; inactive means no such curve, though single readings can be large or run the other way; also: nearly all actives have a fitted effect of over 55% in size; overnight with compound
Numbers without * were called inactive; ? = inconclusive; [ ] = remark or other dose. % is scaled to controls: 0 for no effect and ±100 for the full control effect; potency is read from the fitted curve at half-maximal effect. Not all compounds are listed (hit frequency here may not be typical).

The line under a structure holds: StopGo FLuc | 2A Renilla
CC(C)OCCCNC(=O)c1cn(C)c2ccc(S(=O)(=O)N3CCCCCC3)cc2c1=O
→ -10% | 2%
CCn1nc(C(=O)OCC(=O)N2CCCc3ccccc32)c2ccccc2c1=O
→ 6% | 8%
CCCCNC(=S)Nc1ccc(C)cc1
→ 185%[activator] | 104%[activator]
Cc1cc(S(=O)(=O)N2CCN(C)CC2)c(C)cc1Cl
→ 3% | -1%
COc1ccc(C2=NC3(CCCCCC3)N(CC(=O)Nc3cccc(Cl)c3)C2=O)cc1
→ 0% | -12%
C[C@@H]1CCC2[C@H](C)C(=O)O[C@@H]3O[C@]4(C)CCC1C23OO4 (stereo not given in full)
→ -9% | -2%
Cc1ccc(C(=O)NC2C3CC4CC(C3)CC2C4)cc1C (stereo not given)
→ 72%[activator] | 68%[activator]
O=C(/C=C/c1ccc(Br)cc1)c1ccc(O)c(CCCl)c1
→ 93%[activator] | 14%
NC(=O)C1CCN(C(=O)c2ccc3c(c2)N(Cc2cccc(Cl)c2)C(=O)c2ccccc2S3(=O)=O)CC1
→ 7% | 178%[activator]
C=CCNC(=O)CSc1nc(-c2ccccc2)c(-c2ccccc2)o1
→ 5% | 18%
Cc1ccc(NC(=O)C(C#N)=C2CCCC2)cc1
→ 243%[activator] | ?
O=C(O)c1ccc(NCc2ccc(Cl)cc2)cc1Cl
→ 50%[activator] | -6%
CCCC(=O)N1N=C(c2ccc(F)cc2)CC1c1ccc2nccnc2c1 (stereo not given)
→ -9% | -13%
O=C1NC2(CCCC2)C(=O)N1Cc1coc(-c2cccc(Cl)c2)n1
→ 19% | -29%
COCC(=O)Nc1c(C(=O)Nc2ccc(C)cc2)oc2ccccc12
→ 388%[activator] | -3%
OCCCc1cn[nH]c1
→ -12% | 2%
Cc1cccc(C)c1NC(=O)CN(C)S(=O)(=O)c1ccc2[nH]c3c(c2c1)CCCC3
→ 3% | 7%
CCc1ccc2c(c1)c(=O)c(S(=O)(=O)c1ccccc1)cn2CC(=O)Nc1ccc(F)c(Cl)c1
→ 0% | 6%
O=C(O)c1cncc(C(=O)O)c1
→ 0% | -1%
CCOC(=O)c1cc(NCc2ccc(CC)cc2)ccc1N1CCOCC1
→ ? | ?
C(#CCN1CCCCC1)COCCCOCc1ccccc1
→ 0% | -11%
CCCCCSc1nc2c(c(=O)[nH]c(=O)n2C)n1CCOC
→ 20% | 12%
Cc1coc2cc3oc(=O)c(CC(=O)NCCc4ccccc4)c(C)c3cc12
→ -12% | -4%
CC(Sc1ccc(F)c(Cl)c1)C(=O)NC1CCCC1 (stereo not given)
→ 0% | -2%
CCCCn1nnc(NC(=O)COc2ccc(CC)cc2)n1
→ 3% | -7%
CCOC(=O)N1CCN(CC(=O)Nc2oc3ccccc3c(=O)c2-c2ccc(Cl)cc2)CC1
→ 0% | -19%
O=C(NCC1CCN(C2CCCC2)C1)Nc1ccc(Br)cc1F (stereo not given)
→ 5% | -12%
Cc1ccc(S(=O)(=O)Nc2ccc(S(=O)(=O)C3CCCC3)cc2)c(C)c1
→ 0% | 133%[activator]
COCCNC(=O)c1sc2ncccc2c1-n1c(C)ccc1C
→ -14% | -6%
CCn1nc(C(=O)Nc2ccc(OC)cc2)c2ccccc2c1=O
→ 117%[activator] | 23%
COc1ccc(CNC(=O)CCc2c(C)c3ccc(OC)c(C)c3oc2=O)cc1OC
→ -3% | -10%
Nn1c(SCC(=O)N2CCCCCC2)nnc1-c1cccs1
→ 30% | -2%
CCn1nc(C(=O)N(C)Cc2cnn(-c3ccccc3)c2)c2ccccc2c1=O
→ 10% | 8%
CCCOc1cc(S(=O)(=O)N2CCCC2)c(C)cc1C
→ 3% | 60%[activator]
Cc1ccc(S(=O)(=O)Nc2c(NC3CCCC3)c3ccccc3oc2=O)cc1
→ -1% | -2%
Cc1cccc(S(=O)(=O)Nc2nc3ccccc3nc2NCc2ccccc2Cl)c1
→ 21% | 42%[activator]
Cc1ccc(-c2nnc(Nc3cccc(Cl)c3)c3ccccc23)cc1S(=O)(=O)NCC1CCCO1 (stereo not given)
→ 5% | -5%
CCN1c2cc(C)ccc2-n2cccc2C12CCN(C(=O)Nc1cccc(OC)c1)CC2
→ -17% | -11%
Nn1c(SCc2ncc(-c3ccccc3)o2)nnc1-c1ccccc1F
→ 44%[activator] | 11%
CN(C)S(=O)(=O)N1CCN(C(=O)Cc2ccccc2F)CC1
→ 0% | 3%
Cc1ccc(/C=N/NC(=O)C2C(C=C(Cl)Cl)C2(C)C)cc1 (stereo not given)
→ 25% | 24%
COc1ccc(NC(=O)CSc2nc(-c3ccc(OC)cc3)[nH]c2-c2ccc(F)cc2)cc1
→ 1% | -14%
Cc1cccc(C2(C(=O)NC3CCC(C)CC3)CCC2)c1 (stereo not given)
→ 111%[activator] | 11%
COc1ccc(NC(=O)NCc2nc(-c3cccc(Cl)c3)oc2C)cc1
→ 18% | 1%
Cc1ccc(C(=O)CC2(O)C(=O)N(Cc3ccccc3)c3ccc(Br)cc32)cc1 (stereo not given)
→ -20% | -6%
COc1ccc(CNC(=O)C(=O)Nc2ccccc2OC)cc1
→ 47%[activator] | 3%
Cc1c(C(=O)N(Cc2ccc(Cl)cc2)C2CCS(=O)(=O)C2)oc2ccc(Br)cc12 (stereo not given)
→ -7% | 0%
O=C(O)C/C(=C/c1cccc(Cl)c1)c1nc2ccccc2o1
→ 1% | -2%
CC(C)CNC(=O)NC(=O)COC(=O)Cc1c[nH]c2ccccc12
→ -7% | -11%
COCCNC(=O)NC(=O)CSc1nc(-c2ccco2)nc2ccccc12
→ 40%[activator] | 0%

Continuation.
The line under a structure holds: StopGo FLuc | 2A Renilla
O=C(NCC1CC1)C(=O)Nc1cccc2[nH]ccc12
→ 102%[activator] | -1%
Cc1cccc(C)c1NC(=O)Cn1c(=O)cc(C)c2c(C)nn(-c3cccc(Cl)c3C)c21
→ -12% | -8%
CCOc1cc(-c2cc(C(=O)O)c3c(-c4ccccc4)[nH]nc3n2)ccc1O
→ 54%[activator] | -4%
CC(=O)c1ccc(NC(=O)[C@H](C(C)C)n2nnc3ccccc3c2=O)cc1
→ 31% | 28%
CCOCCCNC(=O)C(c1ccc(Cl)cc1)N(Cc1cccs1)C(=O)c1ccc(NC(C)=O)cc1 (stereo not given)
→ 3% | -5%
CC(=O)c1ccc(NC(=O)CSc2nc(=O)[nH]nc2C)cc1
→ 0% | 13%
Cc1ccccc1N1CCN(S(=O)(=O)c2nnc(NC(=O)c3ccc(Cl)cc3)s2)CC1
→ -4% | -7%
Cc1ccc(NC(=O)CSc2nc(C)c(C)n2C2CCCC2)cc1S(=O)(=O)N1CCOCC1
→ -5% | 102%[activator]
Cc1noc(C)c1CS(=O)(=O)c1cc(F)ccc1F
→ 0% | 0%
CCOC(=O)c1cnc2ccc(C)cc2c1Nc1ccccc1OCC
→ -24% | -20%
Cn1c(=O)c2c(nc(NCCO)n2C)n(C)c1=O
→ -1% | -8%
CCCn1nc(C(=O)Nc2ccc(OCC(C)C)c(Cl)c2)c2ccccc2c1=O
→ 19% | 3%
CCN(CC)c1nc2ccccc2nc1C(=O)Nc1cc(OC)c(OC)c(OC)c1
→ -3% | 5%
CCC(=O)Nc1nc2c(C)cc(NS(=O)(=O)c3cc(Cl)ccc3OC)cc2s1
→ -17% | 294%[activator]
CC(C)c1ccc(/C=C(\C#N)c2nc(-c3cc4ccccc4oc3=O)cs2)cc1
→ -21% | -12%
COc1cc(C#N)ccc1OCC(=O)NC(=O)NCc1ccccc1
→ 12% | -2%
CCOC(=O)c1cccc(OCc2ccc(C#N)cc2)c1
→ 133%[activator] | 16%
Cc1ccc(-c2cc(C(=O)Nc3ccccn3)c3ccccc3n2)o1
→ 14% | 1%
CC(=O)c1ccc(NC(=O)CSc2cn(CC(=O)N3CCCCC3)c3ccccc23)cc1
→ 33%[activator] | 32%[activator]
Nc1ccc(S(=O)(=O)Nc2ccnn2-c2ccccc2)cc1
→ -16%[27 µM] | -4%[23.8 µM]
COP(=O)(OC)c1nc(Cc2ccccc2)oc1NCc1ccc2c(c1)OCO2
→ 9% | 10%
COc1ccc(/C=C2\Oc3cc(OC(=O)c4ccc(C(C)(C)C)cc4)ccc3C2=O)c(OC)c1OC
→ 47%[activator] | 1%
CC(C)c1ccc(NC(=O)CCNS(=O)(=O)c2ccc3c(c2)CCCC(=O)N3)cc1
→ 8% | 0%
O=C(Cn1nnc(-c2ccccc2)n1)N1CCCC1c1ccc2c(c1)OCCCO2 (stereo not given)
→ 39%[activator] | 15%
O=C(O)c1ccc(OCCN2CCCCC2)cc1
→ -8%[11.5 µM] | -1%
Cc1ccc(Cn2c(CN3CCN(c4cccc(Cl)c4)CC3)nc3c2c(=O)n(C)c(=O)n3C)cc1
→ -11% | -17%
COc1cc(Cl)c(C)cc1NC(=O)CN1CCN(S(=O)(=O)Cc2ccccc2)CC1
→ -20% | -13%
CC(C)n1c(SCC(=O)N2CCN(c3ccccc3)CC2)nnc1-c1ccco1
→ ? | -27%
N#Cc1c(SCC(=O)Nc2ccc(Cl)cc2Cl)nc(N2CCOCC2)c2c1CCCC2
→ 1% | -1%
c1ccc2[nH]ccc2c1
→ -13%[11.5 µM] | -7%
Cc1cc(C)n2nc(CNS(=O)(=O)c3cccc(Cl)c3)nc2n1
→ 3% | -2%
Cc1ccc(CNC(=O)C2CCN(S(=O)(=O)c3ccc4nc5c(c(C(=O)O)c4c3)CC(C)CC5)CC2)cc1 (stereo not given)
→ 205%[activator] | 248%[activator]
COc1ccc2c(C)c(CC(=O)NCCc3ccc(F)cc3)c(=O)oc2c1
→ -1% | -6%
CCOP(=O)(OCC)c1nc(Cc2ccc(OC)cc2)oc1NCc1cccnc1
→ 7% | 6%
COc1ccccc1NC(=O)c1cc(-c2ccco2)nc2ccccc12
→ 0% | 0%
Cn1nc(C(=O)Nc2cccc(I)c2)c2ccccc2c1=O
→ 20% | 10%
Cn1c(=O)c2c(ncn2CC(=O)Nc2nc(-c3ccc(-c4ccccc4)cc3)cs2)n(C)c1=O
→ 29% | ?
CCc1ccc(C(C)NC(=O)CN(C)c2ncnc3nc[nH]c23)cc1 (stereo not given)
→ 4% | -1%
Cc1c(Cl)cccc1-n1cccc1C=O
→ -1% | 0%
CCn1cnc2c1c(=O)n(CC(=O)OCCOc1ccc(C)cc1)c(=O)n2Cc1ccccc1
→ 4% | 2%

Full records from above. Order of screens: StopGo FLuc | 2A Renilla
Cn1nc(C(=O)Nc2cccc(I)c2)c2ccccc2c1=O as listed: 20% | 10%
COc1ccccc1NC(=O)c1cc(-c2ccco2)nc2ccccc12 as listed: 0% | 0%

The results go on.
The line under a structure holds: StopGo FLuc | 2A Renilla
CC(=O)c1ccc(S(=O)(=O)Nc2ccc(-c3ccc(N4CCCCCC4)nn3)cc2)cc1
→ 92%[activator] | 66%[activator]
Cc1ccc(C(=O)CC2(O)C(=O)N(Cc3ccccc3F)c3ccccc32)cc1 (stereo not given)
→ 0% | 51%[activator]
CCCNc1nc2ccccc2nc1C(=O)Nc1cccc(C)c1
→ -6% | -7%
COc1ccc(CCNC(=O)[C@H](CC(C)C)NC(=O)N2CCn3c2nc2ccccc23)cc1OC
→ -14% | -16%
CCOc1ccc(S(=O)(=O)N2CCN(Cc3nc4ccc(C)cc4o3)CC2)cc1
→ ? | ?
Cc1ccccc1OCC(O)Cn1c(SC(C)C)nc2c1c(=O)[nH]c(=O)n2C (stereo not given)
→ -13% | -11%
COc1ccc(/C=C(\C#N)c2nc3ccc(C)cc3[nH]2)cc1OC
→ 39%[activator] | 159%[activator]
CCc1ccc(C(NC(=O)c2ccc3c(c2)NC(=O)CS3)c2cccs2)cc1 (stereo not given)
→ 93%[activator] | 70%[activator]
COc1cccc(-c2noc(-c3cc4cc(Cl)ccc4oc3=O)n2)c1OC
→ 3% | -6%
Cc1ccc(NC(=O)CSc2nc3ccccc3n2CC(=O)N2CCC(C)CC2)cc1C
→ -5% | -12%
COC(=O)c1ccc(C2C3=C(CC(C)(C)CC3=O)Nc3c2c(=O)n(C)c(=O)n3C)cc1 (stereo not given)
→ 10% | 0%
Cc1ccnc2c([N+](=O)[O-])cccc12
→ 31%[activator] | 1%
CCc1ccc(OCc2nnc(SCC(=O)C(C)(C)C)n2CC(C)C)cc1
→ ? | ?
COc1ccc2cc(CNC(=O)CNC(=O)c3ccc(C)c(C)c3)ccc2c1
→ 10% | 7%
CC(Sc1nnc(-c2cccs2)n1C1CC1)C(=O)NC1(C#N)CCCCC1 (stereo not given)
→ -8% | 9%
O=C(Cn1cnc(S(=O)(=O)N2CCCC2)c1)Nc1cccc(-c2ccno2)c1
→ 2% | 5%
CC(C)c1ccc(NC(=O)c2cn(C3CCCCC3)c(=O)c3c2c2ccccc2n3C)cc1
→ -2% | -2%
COc1ccccc1Nc1nn2c(=O)c3ccc(C(=O)N4CCC(C)CC4)cc3nc2s1
→ -1% | 58%[activator]
O=C(O)/C=C/c1cccc(Br)c1
→ 10% | 4%
Cc1ccc(CNc2nc3c(c(=O)[nH]c(=O)n3C)n2Cc2cccc(C)c2)cc1
→ 12% | 3%

Quoted at random: 2 entries already listed
The line under a structure holds: StopGo FLuc | 2A Renilla
COc1ccccc1Nc1nn2c(=O)c3ccc(C(=O)N4CCC(C)CC4)cc3nc2s1
→ -1% | 58%[activator]
Cc1ccc(CNc2nc3c(c(=O)[nH]c(=O)n3C)n2Cc2cccc(C)c2)cc1
→ 12% | 3%

The list goes on.
The line under a structure holds: StopGo FLuc | 2A Renilla
COc1ccc(CC(=O)NCc2nc3cccnc3n2Cc2ccc(C)cc2)cc1OC
→ -9% | -3%
CC(C)Cc1nn2c(=O)cc(COC(=O)c3ccc4c(c3)OCO4)nc2s1
→ -9% | -6%
COCCCNC(=O)Cn1c(=O)n(CCCC(=O)NCc2ccc(C)cc2)c(=O)c2ccccc21
→ -5% | -6%
CN(Cc1ccccc1)C(=O)OCc1cn(Cc2ccccc2F)nn1
→ 34%[activator] | 20%

High-throughput results as filed in PubChem.
